Screens as filed in PubChem.
ALR H2O2 inh: inhibitors of human ALR sulfhydryl oxidase, primary screen, biochemical, H2O2 detection, HRP-luminol luminescence, single point; FAD-linked sulfhydryl oxidase ALR (Homo sapiens), P55789; purified ALR, DTT oxidation; inhibition, % (no concentration beside the values); 290,000 compounds, 3.8% hits; AID 485317, 2010;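 active = mean and each replicate at 75% or more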;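 note: stock transfer was 7.5 nL into about 7.5 µL; 0% = neutral wells and 100% = wells with inactivated enzyme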
LANA-H2A inh: blockers of LANA interaction with H2A/H2B – biochemical, FP readout, HTS, primary screen | inhibition, % (test concentration not listed) | 320,000 compounds, 0.6% hits | Protein LANA1 (Human herpesvirus 8 type P (isolate GK18)), Q9QR71 | cell-free LANA-H2A/H2B peptide, fluorescence polarization; in the data active = inhibition mostly above about 10%, no sharp cut-off; inactive = mostly below about 6.7%;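 note: stock transfer was 7.5 nL into about 10 µL; 0% = median of vehicle wells and 100% = median of positive control wells; one replicate is shown; the record names a cut of 25% in any replicate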
Target sequence (Q9QR71 whole entry, looked up): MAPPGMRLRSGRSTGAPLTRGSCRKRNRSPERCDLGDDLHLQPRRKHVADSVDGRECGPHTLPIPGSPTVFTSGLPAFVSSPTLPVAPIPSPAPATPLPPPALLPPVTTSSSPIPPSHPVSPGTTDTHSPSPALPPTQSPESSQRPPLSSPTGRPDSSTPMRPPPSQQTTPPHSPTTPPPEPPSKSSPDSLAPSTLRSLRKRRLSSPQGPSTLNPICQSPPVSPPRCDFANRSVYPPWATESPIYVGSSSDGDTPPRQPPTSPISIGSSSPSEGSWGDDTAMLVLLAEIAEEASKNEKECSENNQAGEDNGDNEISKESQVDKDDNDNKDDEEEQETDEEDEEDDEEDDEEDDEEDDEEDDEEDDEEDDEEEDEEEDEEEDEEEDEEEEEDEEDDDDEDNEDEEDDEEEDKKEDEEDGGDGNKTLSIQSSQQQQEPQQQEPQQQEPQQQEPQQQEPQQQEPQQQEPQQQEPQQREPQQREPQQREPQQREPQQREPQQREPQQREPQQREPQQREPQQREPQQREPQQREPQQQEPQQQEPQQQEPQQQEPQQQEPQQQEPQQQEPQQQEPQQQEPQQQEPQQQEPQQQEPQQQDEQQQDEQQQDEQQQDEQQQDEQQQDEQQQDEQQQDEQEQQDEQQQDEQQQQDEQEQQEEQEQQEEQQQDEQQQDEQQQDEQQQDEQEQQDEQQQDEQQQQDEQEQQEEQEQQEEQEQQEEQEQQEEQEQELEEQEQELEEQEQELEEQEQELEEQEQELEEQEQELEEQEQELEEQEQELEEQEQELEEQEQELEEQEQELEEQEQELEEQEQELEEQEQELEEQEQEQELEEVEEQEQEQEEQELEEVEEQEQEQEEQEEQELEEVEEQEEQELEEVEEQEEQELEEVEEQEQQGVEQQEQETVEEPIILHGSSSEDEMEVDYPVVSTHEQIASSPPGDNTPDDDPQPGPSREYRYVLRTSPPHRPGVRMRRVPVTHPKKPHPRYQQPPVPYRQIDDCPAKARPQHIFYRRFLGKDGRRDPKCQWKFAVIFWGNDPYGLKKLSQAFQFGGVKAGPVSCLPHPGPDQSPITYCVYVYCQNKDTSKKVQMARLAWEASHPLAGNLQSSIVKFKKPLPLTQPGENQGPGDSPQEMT
Ecoli growth: E. coli growth inhibition, primary screen, OD600 | AID 1053175, 2014 | Escherichia coli growth, 23 h; stronger effect = lower value | 330,000 compounds, 0.21% hits | OD600 absorbance (no concentration beside the values);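 active = OD600 absorbance below the run mean of sample wells minus 3.6 SD, in any replicate, cut at about 0.56 in these data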;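 note: stock transfer was 300 nL into about 60 µL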
FGF22 binding: binders of human FGF22 protein, primary screen, FGF22 synaptogenesis inhibitor project, biophysical, thermal shift, single point; Fibroblast growth factor 22 (Homo sapiens), Q9HCT0; recombinant FGF22 thermal shift, SYPRO orange fluorescence; percent of sucrose octasulfate shift, DMSO zero; calls only at 9.99 µM; 340,000 compounds, 1.5% hits;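 active = melting point raised past a set limit in the mean and every replicate; three in four hits are not shown here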
B2AR ag: beta2AR agonists driving receptor internalization, primary screen, cell-based, FAP fluorogen, flow cytometry. AID 504454, 2011. 340,000 compounds, 0.43% hits. response, % (concentration not given with the values). Beta-2 adrenergic receptor (Homo sapiens), P07550. Am2.2-beta2AR cells; reference of the scale not given here;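 active = response above a set limit, near 3 SD of response in nonfluorescent compounds, cut at about 42% in these data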;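 note: stock transfer was 100 nL into about 11 µL; a reference agonist was the positive control; negative values mostly stem from fluorescent compounds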
HNF4A DNA FP: change in binding of human HNF4A to DNA, primary screen, biochemical, fluorescence polarization, FITC-DNA; 1 h; activity change, % at 10 µM; Hepatocyte nuclear factor 4-alpha (Homo sapiens), P41235; AID 1224865, 2016; 360,000 compounds, 0.3% hits; in the data active = activity change above about 30%, passing the limit was not always enough;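 note: controls were the assay level and a saturating level of protein; the project sought stronger binding though the title names inhibitors; some compounds called inactive have numbers as strong as hits; positive values seem to mean higher polarization but the record does not say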
UCH37 DUB inh: inhibitors of human UCH37 deubiquitinase, primary screen, biochemical, Ub-AMC cleavage, fluorescence. AID 588478, 2011. Ubiquitin carboxyl-terminal hydrolase isozyme L5 (Homo sapiens), Q9Y5K5. 330,000 compounds, 0.33% hits. inhibition, % (test concentration not listed). purified proteasome/UCH37;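 active = mean of two replicates above 20%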;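 note: 0% = compound-free wells with enzyme and 100% = wells lacking proteasome; stock transfer was 100 nL into about 20 µL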
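Material: human UCH37 enzyme supplied as purified proteasome complex / Amount: 0.15 nM proteasome as dispensed / Buffer or medium: pH 7.4 Tris-HCl (50 mM) with ovalbumin, ATP-MgCl2, DTT / Times: preincubation 30 min, reaction 25 min, room temperature / Technique: AMC fluorescence from Ub-AMC cleavage, excitation 355 nm, emission 460 nm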
* = called active by the depositor; i = inactive; . = not tested or not shown.

Molecule | LANA-H2A inh | HNF4A DNA FP | Ecoli growth | UCH37 DUB inh | B2AR ag | FGF22 binding | ALR H2O2 inh
CC(C)(C)c1ccc(C(=O)N2CCNC(=O)C2CC(=O)Nc2ccc(F)cc2)cc1 (stereo unspecified) | -0.1 | 4.8 | 0.68 | 0.7 | -4.6 | i | -0.8
CN1CCc2c(sc3nc(SCC(N)=O)n(-c4ccc(Cl)cc4)c(=O)c23)C1 | 9.4 | 43.4* | 0.647 | -193.2 | 11.6 | i | .
COc1cc2sc(-c3ccc(S(C)(=O)=O)cc3)c(C(=O)NCc3ccc(C)o3)c2cc1OC | -3.0 | 0.2 | 0.71 | -42.7 | 7.6 | i | -1.0
O=C(COc1ccc2ccc(=O)oc2c1)N1CCN(c2ccccc2)CC1 | -4.0 | 7.5 | 0.722 | -82.0 | -4.9 | i | .
Cn1ncc2c(c(SCc3ccc(Cl)cc3Cl)nn2C)c1=O | -3.7 | -1.7 | 0.637 | 3.2 | -11.9 | i | -6.0
O=C(OCC(=O)N1CCCC1)c1cc([N+](=O)[O-])ccc1Cl | 7.1 | -2.4 | 0.664 | 3.5 | -11.0 | i | -2.3
Cc1cc(O)c(C(=O)/C=C/c2ccc(Cl)cc2)c(=O)o1 | -3.9 | 6.9 | 0.642 | 5.4 | 10.3 | i | 12.2
CSc1nc(-c2ccco2)nn1C(=O)c1cccs1 | 1.7 | -6.4 | 0.733 | 3.4 | -3.4 | . | 5.6
CCCCN(C)CCNC(=O)Cn1ncc2c(=O)oc3ccc(C)cc3c21 | -3.2 | 4.4 | 0.651 | 5.0 | 12.6 | i | -7.1
CCCOc1ccc(-c2nnn(CC(=O)N3CCC(C)CC3)n2)cc1 | 0.5 | 0.0 | 0.739 | 1.8 | -3.5 | . | -1.5
CCOC(=O)C1CCN(c2nc3ccccc3nc2C(C#N)C(=O)OC(C)COC)CC1 (stereo unspecified) | 7.3 | 2.4 | 0.713 | 3.7 | 0.5 | . | -9.7
Cc1ccc(Oc2nc3c(c(=O)n(Cc4ccccc4F)c(=O)n3C)n2C)cc1 | 0.3 | -2.7 | 0.741 | 1.7 | 6.8 | . | 0.7
CNC(=O)COC(=O)/C=C/c1nc2ccccc2s1 | -3.3 | 4.5 | 0.661 | -0.8 | 3.3 | i | .
CC(C)Sc1nnc(CNC(=O)C23CC4CC(CC(C4)C2)C3)n1C1CCCCC1 | -0.2 | 0.1 | 0.708 | 5.1 | -5.1 | . | -3.2
CCN(C(=O)COc1ccc(C)cc1OC)c1cccc2ccccc12 | 2.4 | 3.7 | 0.657 | 3.1 | -8.6 | i | -12.2
Cn1cc([N+](=O)[O-])c(C(=O)Nc2ccc3c(c2)OCCO3)n1 | -2.2 | 1.4 | 0.687 | 1.6 | 6.8 | . | -1.9

In another format: entries from further up.
Second line of a record: LANA-H2A inh | HNF4A DNA FP | Ecoli growth | UCH37 DUB inh | B2AR ag | FGF22 binding | ALR H2O2 inh
- CCOC(=O)C1CCN(c2nc3ccccc3nc2C(C#N)C(=O)OC(C)COC)CC1 (stereo unspecified)
→ 7.3 | 2.4 | 0.713 | 3.7 | 0.5 | . | -9.7
- Cc1ccc(Oc2nc3c(c(=O)n(Cc4ccccc4F)c(=O)n3C)n2C)cc1
→ 0.3 | -2.7 | 0.741 | 1.7 | 6.8 | . | 0.7

(list continues)
Molecule | LANA-H2A inh | HNF4A DNA FP | Ecoli growth | UCH37 DUB inh | B2AR ag | FGF22 binding | ALR H2O2 inh
CCOC(=O)c1c(C)[nH]c(C)c1S(=O)(=O)NCc1cc(C)ccc1C | 4.9 | 3.5 | 0.696 | 0.7 | 10.0 | i | -1.5
CN(c1ccccc1)S(=O)(=O)c1cccc(C(=O)NNC(=O)c2ccncc2)c1 | 0.3 | 1.4 | 0.643 | 2.8 | -3.5 | i | 18.2
Cc1cc(C)n(CC(=O)c2cccc(N)c2)n1 | 1.6 | -1.2 | 0.711 | -0.8 | -1.1 | i | 14.9
Cc1ccc(C)c(/C=N/Nc2ccccn2)c1 | -1.3 | 4.1 | . | . | 2.1 | . | -4.2
CCN1C(=O)C(CC(=O)Nc2ccc(OC)cc2)N(Cc2ccco2)C1=S (stereo unspecified) | -7.8 | -1.9 | 0.683 | 3.3 | 8.2 | . | .
CCOC(=O)c1c(NC(=O)c2ccc(C)cc2)sc2c1CC(C)(C)OC2 | -0.8 | -1.1 | 0.781 | -6.9 | 14.3 | . | -21.4
COc1ccc(NC(=O)CCCn2nc(C)c3c(C)n(-c4ccccc4)nc3c2=O)cc1 | 0.2 | -2.6 | 0.677 | 0.7 | -9.2 | i | -5.3
COc1ccc(N(C(C)=O)S(=O)(=O)c2cc(OC)ccc2OC)cc1 | -4.9 | -0.9 | 0.771 | -3.1 | 6.3 | . | -3.0
COc1ccc(-c2[nH]ncc2CN2CCSCC2)c(OC)c1 | 4.9 | -1.1 | 0.682 | 5.6 | 1.2 | i | -11.1
Cc1cc2nccc(-c3cccnc3)n2n1 | -1.6 | -2.0 | 0.7 | 0.9 | -1.6 | i | -6.8
O=c1c2nnn(-c3cccc(F)c3)c2ncn1Cc1ccccn1 | 1.6 | -2.3 | 0.695 | 0.3 | -3.4 | i | 8.8
O=C(CCc1ccc(S(=O)(=O)N2CCOCC2)cc1)OCC(=O)c1ccc(Br)cc1 | -0.3 | 1.5 | 0.668 | 1.9 | 3.2 | i | 3.4
COCc1nnc(NC(=O)C(C)C)s1 | 1.8 | -0.2 | 0.678 | 3.5 | 52.9* | . | -0.4
O=Cc1cn(CC(O)CN2CCCCC2)c2ccccc12 (stereo unspecified) | -1.6 | 3.4 | 0.688 | 1.6 | 1.9 | i | -10.1
CCC(C)(C)n1nnnc1C(c1ccccn1)N1CCOCC1 (stereo unspecified) | 6.3 | 0.0 | 0.694 | 0.3 | -16.2 | . | 0.6
Cc1ccc(C(=O)N2CCN(S(=O)(=O)c3ccccc3[N+](=O)[O-])C2)cc1 | 3.4 | -0.1 | 0.723 | 1.6 | -3.8 | i | -13.7
CC(c1ccon1)N(C)Cc1cn(C)nc1-c1cccc(Cl)c1 (stereo unspecified) | -9.5 | 3.0 | 0.698 | 0.9 | -9.7 | i | -13.9
CCOC(=O)C(=CNNc1ccccc1)C(=O)OCC | 0.7 | 2.5 | 0.636 | 4.7 | -3.1 | i | -42.8
S=c1[nH]nc(Cc2noc3ccccc23)n1-c1ccc(Cl)cc1 | 12.8 | -0.6 | 0.655 | 1.7 | 10.1 | i | 92.3*
COc1ccc2sc(N(CCN(C)C)C(=O)/C=C/c3cccs3)nc2c1 | 4.8 | 2.0 | 0.664 | 6.8 | -0.8 | i | .
O=S(=O)(NCCc1cn2ccccc2n1)c1ccc2c(c1)OCCO2 | 1.3 | 0.5 | 0.699 | -0.4 | 6.9 | i | -3.7
COC(=O)c1ccccc1NC(=S)NC(C)=O | 3.8 | -1.9 | 0.656 | 2.6 | 1.2 | . | -6.1
COC(=O)CCc1c(C)c(C(=O)c2cccc(OC)c2OC)c2ccccn12 | 0.1 | 1.6 | 0.649 | 6.1 | -1.6 | i | 4.7
CCCCNC(=S)NNC(=O)c1csc(C)c1 | -1.7 | 3.1 | 0.693 | 3.5 | 4.4 | . | 15.6
C=CCOc1ccc2cccc(/C=N/NC(=O)c3cc4cc([N+](=O)[O-])ccc4s3)c2c1 | 2.9 | 5.6 | . | . | -5.2 | . | 0.6
O=C1Cc2cc(NS(=O)(=O)c3cc(F)ccc3F)cc3c2N1CCC3 | -1.8 | -0.8 | 0.689 | 3.8 | -2.5 | . | 9.0
Cc1ccc(S(=O)(=O)NC(C)C(=O)Nc2ccccc2C(=O)N2CCCC2)cc1 (stereo unspecified) | 3.0 | -0.6 | 0.687 | 1.4 | -3.1 | . | 2.2
Cc1ccc(CNC(=O)/C=C/c2ccccc2Cl)cc1 | 4.9 | -0.5 | 0.777 | -3.3 | 1.3 | . | -1.5
Cc1nn(C)cc1CNCc1ccc(OCC(O)CN(C)Cc2ccccc2)cc1 (stereo unspecified) | -2.9 | 2.6 | 0.729 | 4.4 | 3.0 | i | 6.3
CCC(NS(=O)(=O)c1ccc(OC)cc1)C(=O)NCCC1=CCCCC1 (stereo unspecified) | 0.8 | 7.7 | 0.695 | 0.1 | -4.2 | i | -2.7
O=C1NC2=C(C(=O)CCC2)C(c2ccc3ncccc3c2)N1 (stereo unspecified) | 1.7 | -1.7 | 0.68 | -0.5 | -6.3 | i | -13.9
COCc1nnc(NC(=O)c2ccc(S(=O)(=O)N3CCOCC3)cc2)o1 | 1.5 | -1.8 | 0.703 | 4.8 | -2.7 | i | 2.1
CC1=NNC(=O)C1CCC(=O)N/N=C/c1ccco1 (stereo unspecified) | 0.4 | 0.9 | . | . | -0.3 | i | -2.6
O=C(NCc1ccco1)c1cc(S(=O)(=O)N2CCCc3ccccc32)ccc1Cl | -4.8 | 1.3 | 0.719 | 0.6 | -2.3 | . | 4.0
O=C(Cc1ccc(F)cc1)N[C@@H]1c2ccccc2CC[C@@H]1OCc1ccccc1 | . | -0.5 | 0.676 | 0.8 | -2.0 | i | .
Cc1ccc(OCc2ccc(C(=O)NCc3cccnc3)cc2)cc1C | 3.0 | 2.2 | 0.673 | 3.4 | 3.6 | i | -1.1
COc1cc(NC(=O)c2ccc(OCc3c(C)noc3C)c(OC)c2)cc(OC)c1 | 2.6 | 2.8 | 0.7 | 3.0 | 14.7 | i | -4.4
Cc1ccc(NC(=O)NCc2ccncc2)cc1Cl | -2.5 | -0.3 | 0.602 | 1.3 | 9.9 | i | 0.4
Cc1ccc(C)c(N2CCN(C(=O)c3ccc(CS(=O)(=O)c4ccccc4C)o3)CC2)c1 | -0.4 | 5.4 | 0.705 | 6.4 | 4.7 | . | 15.3
Cc1ccc(OC(C)C(=O)N2CCCc3ccccc32)cc1 (stereo unspecified) | -5.6 | -4.8 | 0.703 | -0.2 | -1.5 | . | -8.4
CCC1=C(OC(=O)N(CC)CC)N2C(=O)OC(=NCC(=O)OC)[C@]2(C)[C@H]2C1=CC[C@H]1C(=O)NC(=O)[C@H]12 | 0.1 | -2.8 | . | 6.4 | -0.7 | i | -2.1
CCOC(=O)C1=C(C)NC2=C(C(=O)c3ccccc32)C1c1ccc([N+](=O)[O-])o1 (stereo unspecified) | -2.8 | 2.7 | 0.627 | 4.2 | -13.1 | . | .
NC(=O)NC(=O)COC(=O)c1ccc(Cl)c(S(=O)(=O)N(Cc2ccccc2)c2ccc(Cl)cc2)c1 | -7.6 | 1.9 | 0.721 | 2.4 | 2.1 | . | -6.0
Cc1oncc1-c1csc(-c2ccccc2)n1 | -2.9 | 0.7 | 0.691 | -0.7 | -6.0 | i | -28.9
C#CCOCCOCCOCCNc1nc(N2CCN(C(=O)Cn3cc(CC(C)O)nn3)CC2)nc(N2CCN(C(=O)[C@H](CCCCN)n3cc(CC(C)O)nn3)CC2)n1 (stereo partly specified) | . | 0.4 | . | . | -3.7 | i | .
O=C1NC(c2ccccc2)=NC1(Nc1ccccn1)C(F)(F)F (stereo unspecified) | -2.2 | 0.6 | 0.685 | 1.4 | 8.2 | i | -1.7

Some of the compounds tested; the hit share may differ from the screen's.
